Sa ugtP lethal = growth inhibition of ugtP-null S. aureus, primary screen, RN4220 ugtP deletion, OD600. AID 1259309, 2017. 16 h; some inactives read as strong as hits. growth inhibition, % (test concentration not listed). 330,000 compounds, 0.54% hits;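 active means z-score under -3 and OD600 up to 0.15 on both plates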;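 further: plate controls were untreated wells for no effect and antibiotic for full effect; wells of about 80 µL received 100 nL stock; the first replicate is given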
Autofluor counter = counter-screen for toxin protease inhibitors: compound fluorescence | fluorescence intensity (concentration not given with the values) | compound autofluorescence counterscreen, microsphere flow cytometry; hits give high values | 360,000 compounds, 3.1% hits;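 active means at least 3 SD above the mean of all compounds, about 16000 in these data; inconclusive means too few beads counted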;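 further: 100 nL of 1 mM stock went into each well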
Sa RN4220 lethal = growth inhibition of S. aureus RN4220, primary screen, OD600 | 330,000 compounds, 0.33% hits | AID 1259311, 2017 | 16 h | inhibition, % (no concentration beside the values);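 active means z-score of -3 or lower and OD600 up to 0.18 on both plates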;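 further: plate controls were untreated cells for no effect and reference antibiotic for full effect; stock transfer was 100 nL into about 80 µL; one replicate is shown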
BJeLR lethal = MLPCN primary cell-based screen for lethality selective to Ras in HRASV12 cells; inhibition, % (test concentration not listed); BJeLR (HRASV12) viability, CellTiter-Glo ATP luminescence, 48 h; reference of the scale not given here; 300,000 compounds, 0.17% hits;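 active means replicate mean above 50%; inconclusive means above 50% but judged a plate artefact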;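 further: 50 nL library stock added to about 25 µL; numbers are from one replicate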
PrP UTR inh = inhibition of PrP 5' UTR reporter expression. cell-based PrP 5' UTR mRNA reporter, plate reader. inhibition, % (concentration not given with the values). 340,000 compounds, 0.35% hits;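 active means every replicate at 50% or more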;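 further: 0 = median of the neutral control wells; tested in H4 reporter cells; numbers are from one replicate; inactives centre near -14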
Mtb hypoxia inh = PubChem AID 1159583; M. tuberculosis hypoxia-regulated fluorescent reporter, fluorescence; 300,000 compounds, 0.1% hits; fluorescence inhibition, % (concentration not given with the values);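 active means 35 to 45% if threefold the growth effect, above 45% if 1.5-fold the growth effect; inactive means the rest, general growth blockers included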;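 further: wells of about 50 µL received 100 nL stock; 0% = vehicle wells and 100% = reference inhibitor wells; whole bacteria with a GFP reporter of the hypoxia response; strong numbers were not always called active; many hits fall short of the cut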
Mtb hypoxia inh growth = recorded beside Mtb hypoxia inh, whose call it bears; growth inhibition, %; measured here: M. tuberculosis growth (absorbance);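 0% = vehicle and 100% = reference antibiotic; read after six days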
Active calls of the source: *; u = inconclusive; x = not tested or not shown.

SMILES	Sa ugtP lethal	Autofluor counter	Sa RN4220 lethal	BJeLR lethal	PrP UTR inh	Mtb hypoxia inh	Mtb hypoxia inh growth
Cc1cccc(Nc2c([N+](=O)[O-])c(=O)oc3ccccc23)c1	-6	4241	-0.1	0	-6	-4	7
CC(C)NC(=O)Cn1cc(C(=O)COc2ccccc2)c2ccccc21	2	3735	-1.0	-1	-21	1	-1
Cc1ccc(S(=O)(=O)N(CC(=O)N2CCCCCC2)c2ccccc2)cc1	8	8055	6.3	0	-24	6	9
O=C(CN1C(=O)NC2(CCCC2)C1=O)NNC(=O)c1ccccc1F	3	3943	2.0	x	-21	5	12
CC(C)(Oc1ccc(Cl)cc1)C(=O)NCCN1C(=O)S/C(=C/c2cccnc2)C1=O	-5	2516	29	9	-22	12	8
Cc1ccc(CNS(=O)(=O)c2ccccc2[N+](=O)[O-])cc1	x	4364	x	4	-10	x	x
CC(OC(=O)/C(C#N)=C/c1ccc(N(C)C)cc1)C(=O)N(C)Cc1ccccc1 (centres undefined)	-4	5241	2.6	-2	-5	5	7
Cc1ccc([C@@H]2CC=C(C(=O)O)[C@H](c3ccc(Cl)cc3)N2S(=O)(=O)c2ccccc2C)cc1	6	2887	16	x	0	-4	-4
Cc1nnc(SCC(=O)NNC(=O)c2ccco2)s1	-3	5701	1.4	4	-18	3	17
C=CCn1c(NC(C)c2cc(Cl)ccc2O)nc2ccccc21 (centres undefined)	-3	5540	29	5	0	-5	-3
N#C/C(=C\Nc1ccccc1SC(F)(F)F)c1nc(-c2ccc(Cl)cc2)cs1	-5	3173	-13	1	-52	-16	-7
Cc1ccc2c(c1)c1n[nH]c(=S)nc1n2CCc1ccccc1	0	3522	10	-1	-18	16	-7
CC1CC(C)CN(C(=O)c2cccc(S(=O)(=O)Nc3cc(C(F)(F)F)ccc3Cl)c2)C1 (centres undefined)	27	2532	12	-2	-14	5	6
O=C(NC(=S)NCC1CCCO1)c1ccccc1 (centres undefined)	-2	2399	5.6	5	-27	4	4
COc1ccc(C=NNc2nc(Nc3ccccc3)nc(N3CCCC3)n2)cc1	8	x	9.6	x	x	5	14
Cc1cc2ccccc2c(=O)n1CC(=O)N1CCN(c2cccc(Cl)c2)CC1	7	2807	6.1	2	-14	7	4
O=C(NC(Cc1c[nH]c2ccccc12)C(=O)NCCCN1CCOCC1)c1cccs1 (centres undefined)	2	4419	1.4	5	-32	12	7
NC(=O)c1ncc(C(F)(F)F)cc1Cl	6	5018	4.3	5	-22	14	0
CCN1C(=O)C(CC(=O)Nc2ccc(OC)cc2)N(CCc2ccccc2)C1=S (centres undefined)	1	4826	-5.1	x	-6	5	17
O=P(O)(COc1ccccc1)COc1ccccc1	-5	6163	4.4	2	-11	2	13
COCCCNC(=O)/C(C#N)=C/c1c(N2CCN(c3cccc(Cl)c3)CC2)nc2c(C)cccn2c1=O	-1	5882	2.1	5	-35	2	10
COc1ccccc1N(CC(O)COc1ccccc1C)S(=O)(=O)c1ccccc1 (centres undefined)	-2	6860	19	6	-18	4	2
COc1ccc(-n2c(C)cc(C(=O)CN3C(=O)NC4(CCCc5sccc54)C3=O)c2C)cc1 (centres undefined)	-6	2490	-4.1	-3	-1	-10	5
Cc1ccc(C(C[N+](=O)[O-])c2c(-c3ccccc3O)[nH][nH]c2=O)cc1 (centres undefined)	-3	2413	24	5	-5	19	9
CCN(CC)C(=O)CCCOc1ccc(Cl)cc1Cl	4	6385	8.8	1	-87	13	19
Cc1cc(C(=O)Nc2sc(C)c(C)c2C#N)no1	-2	10698	2.6	8	-30	3	9
CCN(CC)CCn1c2c(c(SCC(=O)Nc3cccc(C(C)=O)c3)nc1=O)CCCC2	0	4663	-0.2	1	-20	-1	11
COc1cccc(C(=O)N(CN2CCCC2=O)c2cccc(Cl)c2)c1OC	10	16669*	5.0	3	-19	13	3
O=C(CC1C(=O)NCCN1Cc1ccc(-c2ccccc2)cc1)NCC1CC1 (centres undefined)	6	2173	1.2	-1	0	2	-7
Cc1ccc(C2(C)NC(=O)N(CC(=O)N(C)CC(=O)Nc3cccc4ccccc34)C2=O)cc1 (centres undefined)	1	u	-1.1	8	-10	5	1

Single records (already shown):
Listed for Cc1ccc([C@@H]2CC=C(C(=O)O)[C@H](c3ccc(Cl)cc3)N2S(=O)(=O)c2ccccc2C)cc1 = Sa ugtP lethal: 6; Autofluor counter: 2887; Sa RN4220 lethal: 16; BJeLR lethal: x; PrP UTR inh: 0; Mtb hypoxia inh: -4; Mtb hypoxia inh growth: -4
Listed for Cc1ccc(S(=O)(=O)N(CC(=O)N2CCCCCC2)c2ccccc2)cc1 = Sa ugtP lethal: 8; Autofluor counter: 8055; Sa RN4220 lethal: 6.3; BJeLR lethal: 0; PrP UTR inh: -24; Mtb hypoxia inh: 6; Mtb hypoxia inh growth: 9

Following part:
SMILES	Sa ugtP lethal	Autofluor counter	Sa RN4220 lethal	BJeLR lethal	PrP UTR inh	Mtb hypoxia inh	Mtb hypoxia inh growth
CCc1cccc(OCCN2CCCC2)c1	7	2518	3.0	-1	-23	0	4
CCCCc1nc2cc(C(=O)N3CCC(O)CC3)ccc2o1	8	4995	1.9	-3	-45	4	6
COc1ccc(C2C(C(C)=O)=C(C)Nc3ncnn32)c(OC)c1OC (centres undefined)	-4	3333	-2.2	-5	-9	13	-1
CCOc1ccc(N(CC)C(=O)COc2cc(=O)n(CC)c3ccccc23)cc1	7	3548	8.4	-7	-6	3	1
CN1C(=O)N(C)C(=O)C2(Cc3cc(NC(=O)c4ccc(F)cc4)ccc3N3CCCC32)C1=O (centres undefined)	x	4018	x	6	-58	x	x
S=C1NCC(Cc2cccc3ccccc23)N1CC1CCCCC1 (centres undefined)	9	x	-12	x	x	-1	1
CC(CCc1ccccc1)NC(=O)c1ccncc1 (centres undefined)	2	10471	1.2	-8	-6	19	12
CN(CCC1CCCCO1)C(=O)CCc1nnc(C2CCCCC2)o1 (centres undefined)	2	3385	5.2	-12	-40	6	-7
CCOc1ccccc1C(=O)n1nc(C)cc1C	3	5614	1.8	3	-10	x	x
CC1=NN(C(=O)CCCc2ccccc2)C(O)(C(F)(F)F)C1 (centres undefined)	1	4386	2.6	14	-3	0	-2
Cc1ccc(C)c(Cn2nnc3c(=O)[nH]c(C4CCN(C(=O)c5cccs5)CC4)nc32)c1	66	3814	33	-4	-4	x	x
Cc1cc(C)nc(SCc2ccc(F)cc2)n1	-8	3382	-2.7	-5	2	3	4
CC(C)OCCCNC(=S)Nc1ccc(S(N)(=O)=O)cc1	-8	3228	-0.4	-4	-6	-3	-1
CCN1CCN(Cc2ccc(NC(=O)c3ccc(C)c(NC(=O)c4csc(-c5ccncc5)n4)c3)cc2C(F)(F)F)CC1	6	4494	-0.9	11	20	2	4
CC(=O)c1cccc(NC(=O)CON=C2CCCc3nonc32)c1	4	x	11	x	x	13	8
O=C(CN(C(=O)c1csnn1)c1ccc(F)cc1)NCc1ccc(F)cc1	5	3338	-1.5	-8	10	4	10
Cc1cc(C(=O)COC(=O)c2ccc3c(c2)OCO3)c(C)n1Cc1cccs1	15	3970	-1.1	-23	-51	1	1
COc1cccc(COC(=O)c2c(C)nn(-c3ccccc3)c2Cl)c1OC	27	5898	-3.2	-4	-2	3	15
CC1(C)CC(=O)C(C(C#Cc2ccccc2)C2=C(O)CC(C)(C)CC2=O)=C(O)C1	1	13101	1.7	-4	-22	2	8
COc1ccc(NC(=O)CN(C)S(=O)(=O)c2ccc(Cl)cc2)cn1	0	6629	3.7	x	-1	6	3
Cn1cc(C(=O)c2ccc(Cl)cc2Cl)cc1C=O	3	2544	-0.8	6	-9	0	1
CCC(C)NC(=O)NC1C(NC(=O)NC(C)CC)N(C)C(=O)N1C (centres undefined)	1	10753	5.8	9	-27	3	3
O=C(Cn1ncc2c3ccccc3n(Cc3ccccc3F)c2c1=O)NCCCN1CCCC1=O	-6	4900	-3.4	-12	-16	-3	-4
CCN(CC)S(=O)(=O)c1cccc(NC(=O)CCNC(=O)c2ccccc2Cl)c1	1	6406	0.8	3	-16	-8	-11
O=C(N/N=C/C(Br)=C\c1ccccc1)c1ccco1	x	4828	x	-5	-75	x	x
Cc1ccc(S(=O)(=O)NCc2cccnc2)cc1C(=O)NC1CCCCC1	-1	5589	-0.6	0	-14	-8	7
COc1cc(C2C(C#N)=C(N)OC3=C2C(=O)CCC3)ccc1OC(=O)N1CCOCC1 (centres undefined)	4	12153	3.3	12	-19	4	7
O=C(Nc1nn[nH]n1)c1ccc(S(=O)(=O)N2CCCCC2)cc1	8	4576	4.8	5	-8	8	6
CCc1ccccc1NC(=O)N1CCCc2ccccc21	3	5311	0.1	1	1	4	13
Cc1ccc(OCCn2c(C)c(C=Nn3cnnc3)c3ccccc32)cc1	-7	x	-2.8	x	x	8	-1
Cc1cccn2c(=O)c3cc(C(=O)NCc4ccco4)c(=N)n(C(C)C)c3nc12	7	16268*	5.0	5	-11	4	9
COc1cc(NS(C)(=O)=O)ccc1Nc1c2ccccc2nc2ccccc12	100*	4334	-8.5	x	9	0	4
Cc1[nH]c2ccccc2c1C(=O)CSc1ccccc1	-9	2407	-3.2	-11	-18	1	7
O=C(Nc1c(C(=O)N2CCOCC2)oc2ccccc12)c1cccc([N+](=O)[O-])c1	2	4258	0.6	-11	0	2	-5
O=C(CN1CCC(c2nc3ccccc3s2)CC1)NCc1cccs1	3	8206	5.0	8	x	4	0
CN(C(=O)CN1C(=O)S/C(=C\c2ccccc2F)C1=O)C1CCS(=O)(=O)C1 (centres undefined)	7	5566	5.0	3	-9	6	-4
NC(=O)c1cccc(CC(=O)c2ccccc2)c1	3	5051	3.7	-3	-22	1	8
COc1ccccc1-n1c(SCC(=O)Nc2cccc(S(N)(=O)=O)c2)nc2ccccc2c1=O	6	4323	0.9	-2	-7	9	6
CCC(CO)N=C1CC(C)(C)CC(=O)/C1=C(/O)CCCN1C(=O)c2ccccc2C1=O (centres undefined)	x	3198	x	-4	-13	x	x
Brc1ccc2c(c1)OCCOCCOCCOCCOCCOCCO2	-1	2022	3.5	-2	-7	9	17
Cc1ccc(-n2c(SCC(=O)N(C)C3CCS(=O)(=O)C3)nc3ccccc3c2=O)c(C)c1 (centres undefined)	0	3519	2.2	x	-25	4	7
Cc1nn(-c2ccccc2)c(C)c1C=NNC(=O)c1cnccn1	5	x	3.3	x	x	3	13
Cn1c(=O)c2c(nc(NCc3ccc4c(c3)OCO4)n2Cc2ccc(F)cc2)n(C)c1=O	-16	18743*	3.7	-3	1	7	10

In the list so far, these contain an aryl methoxy group:
SMILES	Sa ugtP lethal	Autofluor counter	Sa RN4220 lethal	BJeLR lethal	PrP UTR inh	Mtb hypoxia inh	Mtb hypoxia inh growth
COc1ccc(C=NNc2nc(Nc3ccccc3)nc(N3CCCC3)n2)cc1	8	x	9.6	x	x	5	14
CCN1C(=O)C(CC(=O)Nc2ccc(OC)cc2)N(CCc2ccccc2)C1=S (centres undefined)	1	4826	-5.1	x	-6	5	17
COc1ccccc1N(CC(O)COc1ccccc1C)S(=O)(=O)c1ccccc1 (centres undefined)	-2	6860	19	6	-18	4	2
COc1ccc(-n2c(C)cc(C(=O)CN3C(=O)NC4(CCCc5sccc54)C3=O)c2C)cc1 (centres undefined)	-6	2490	-4.1	-3	-1	-10	5
COc1cccc(C(=O)N(CN2CCCC2=O)c2cccc(Cl)c2)c1OC	10	16669*	5.0	3	-19	13	3
COc1ccc(C2C(C(C)=O)=C(C)Nc3ncnn32)c(OC)c1OC (centres undefined)	-4	3333	-2.2	-5	-9	13	-1
COc1cccc(COC(=O)c2c(C)nn(-c3ccccc3)c2Cl)c1OC	27	5898	-3.2	-4	-2	3	15
COc1ccc(NC(=O)CN(C)S(=O)(=O)c2ccc(Cl)cc2)cn1	0	6629	3.7	x	-1	6	3
COc1cc(C2C(C#N)=C(N)OC3=C2C(=O)CCC3)ccc1OC(=O)N1CCOCC1 (centres undefined)	4	12153	3.3	12	-19	4	7
COc1cc(NS(C)(=O)=O)ccc1Nc1c2ccccc2nc2ccccc12	100*	4334	-8.5	x	9	0	4
COc1ccccc1-n1c(SCC(=O)Nc2cccc(S(N)(=O)=O)c2)nc2ccccc2c1=O	6	4323	0.9	-2	-7	9	6

Screening data as filed in PubChem.
